Screens (PubChem)
Yeast UUG start: modulators of yeast start codon fidelity, primary screen, whole organism, S. cerevisiae, single point, plate reader | AID 602363, 2012 | S. cerevisiae UUG-firefly luciferase reporter, luminescence/redox ratio | activity score, % at 18.7 µM | 350,000 compounds, 0.13% hits;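 active means replicate mean at a twofold rise or more, about +100% in these data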;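 further: firefly luciferase made from a UUG start codon reports start codon fidelity; reporter light over untreated wells divided by growth signal over untreated wells; some hits fall short of that in this replicate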
CSC inhib: cancer stem cell viability inhibitors, primary screen, luminescence | cancer stem cell-like cells viability | inhibition, % at 7.5 µM | 300,000 compounds, 1.1% hits | AID 2717, 2010;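 active means mean at 75% or more and at least half the replicates too; tested in HMLE shEcad cells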;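 further: 0% = median of negative and 100% = median of positive control wells; the first replicate is given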
Rce1 inhib: yeast Rce1p protease inhibitors, primary screen, biochemical, fluorescence, cell-free homogeneous | calls only | 290,000 compounds, 0.27% hits | CAAX prenyl protease 2 (Saccharomyces cerevisiae (strain ATCC 204508 / S288c)), Q03530 | AID 2563, 2010 | yeast membranes, quenched prenylated peptide cleavage fluorescence;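 active means fall in fluorescence gain of 50% or more versus controls, with final raw signal at or below 3038400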;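 further: plate controls were neutral control wells for no effect and wells lacking membranes for full effect; tested at 10 µM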
Target sequence (Q03530 whole entry, looked up): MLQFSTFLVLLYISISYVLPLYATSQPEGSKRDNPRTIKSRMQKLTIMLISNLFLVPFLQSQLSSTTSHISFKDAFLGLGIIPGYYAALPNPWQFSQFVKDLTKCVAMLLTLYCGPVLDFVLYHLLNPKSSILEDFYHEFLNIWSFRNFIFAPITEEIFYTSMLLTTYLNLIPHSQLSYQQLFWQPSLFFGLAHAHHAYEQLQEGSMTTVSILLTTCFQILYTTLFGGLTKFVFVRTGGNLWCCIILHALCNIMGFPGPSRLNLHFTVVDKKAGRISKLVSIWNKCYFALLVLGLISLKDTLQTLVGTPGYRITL
MT1-MMP act inh: blockers of MT1-MMP proenzyme processing, primary screen, HT1080 RFP-PRO-GFP cells, GFP/RFP fluorescence. GFP/RFP ratio fluorescence, overnight; percent of plate control window, DMSO zero. GFP/RFP ratio change, % at 20 µM. 360,000 compounds, 0.061% hits. AID 651647, 2012;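 active means GFP/RFP ratio change of at least 30% with cell ATP level not reduced by more than half and red fluorescence within 50% of control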; further: strong numbers were not always called active
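Read-out: GFP/RFP fluorescence ratio; Test system: RFP-PRO-GFP reporter HT1080 cells; Compound dosing: single-point 20 µM compound, 1% DMSO; Times: overnight compound exposure at 37 °C.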
Env fusion inh: inhibitors of HIV-1 Env-driven cell-cell fusion, primary screen, HeLa-JRFL effector, CEM21 target cells, luciferase. inhibition, % at 12.3 µM. 360,000 compounds, 1.1% hits. AID 651610, 2012;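 active means mean replicate inhibition score of at least 50 and every replicate individually at or above 50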;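 further: 0% = plate neutral controls and 100% = maraviroc near 300 nM; one replicate is shown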
eIF4H inh: human eIF4H binding inhibitors, primary screen, translation initiation inhibitor project, biochemical, uHTS, fluorescence polarization; Eukaryotic translation initiation factor 4H (Homo sapiens), Q15056; inhibition, % at 35 µM; 290,000 compounds, 0.94% hits; eIF4H fluorescence polarization binding assay;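 active means 50% or more with normal probe brightness, or confirmed in later tests; about a fifth of its hits are not listed in these tables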;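 further: calls also rest on retests at 20 µM and on dose response follow-up; 0% = protein and probe with vehicle and 100% = probe without protein; strong numbers were not always called active; many hits fall short of the cut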
PABP FP inh: PABP poly(A) RNA binding inhibitors, primary screen, biochemical, fluorescence polarization, uHTS. inhibition, % at 35 µM. AID 2014, 2009. Polyadenylate-binding protein 1 (Homo sapiens), P11940. 290,000 compounds, 1% hits;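 active means 50% or more with normal probe brightness, or confirmed in later tests; about a fifth of its hits are not listed in these tables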;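 further: calls also rest on retests at 20 µM and on dose response follow-up; controls were probe without protein and protein plus probe with vehicle; some compounds called inactive have numbers as strong as hits; many hits fall short of the cut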
Target sequence (P11940 whole entry, looked up): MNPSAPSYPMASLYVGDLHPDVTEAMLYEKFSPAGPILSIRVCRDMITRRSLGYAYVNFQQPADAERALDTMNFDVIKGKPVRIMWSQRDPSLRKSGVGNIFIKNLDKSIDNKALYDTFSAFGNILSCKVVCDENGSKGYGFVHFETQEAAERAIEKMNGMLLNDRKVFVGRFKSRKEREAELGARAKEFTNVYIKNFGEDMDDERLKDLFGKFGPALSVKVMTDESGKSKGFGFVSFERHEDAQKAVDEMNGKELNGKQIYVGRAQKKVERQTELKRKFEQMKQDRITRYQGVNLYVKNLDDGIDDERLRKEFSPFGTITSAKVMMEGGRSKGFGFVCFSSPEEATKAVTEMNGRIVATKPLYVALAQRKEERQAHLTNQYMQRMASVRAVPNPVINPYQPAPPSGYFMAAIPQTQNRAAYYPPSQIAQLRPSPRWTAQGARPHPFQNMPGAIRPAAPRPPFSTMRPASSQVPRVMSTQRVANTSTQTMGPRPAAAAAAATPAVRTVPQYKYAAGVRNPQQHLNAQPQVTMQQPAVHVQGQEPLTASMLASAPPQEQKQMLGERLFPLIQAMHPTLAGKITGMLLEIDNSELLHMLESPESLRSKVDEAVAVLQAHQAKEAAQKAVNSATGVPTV
eIF4H inh retest: second read-out of eIF4H inh, no call of its own (marks repeat the call); inhibition, %; compound at 20 µM; confirmation average;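 mean of two retest wells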
PABP FP inh retest: second read-out of PABP FP inh, no call of its own (marks repeat the call); inhibition, %; compound at 20 µM; confirmation repeats;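 mean of two retest wells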
MT1-MMP act inh RFP: also measured in MT1-MMP act inh; calls as there; RFP signal change, %; measured here: RFP expression control read;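 0 = vehicle wells; hits needed this value within 50% of zero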
The depositor's hits bear a star; i = inactive; . = no result given; & = joins results of further samples; [ ] = remark or other dose. Some of the compounds tested; count on the stated rates, not on these rows.

SMILES | Yeast UUG start | CSC inhib | Rce1 inhib | MT1-MMP act inh | MT1-MMP act inh RFP | Env fusion inh | eIF4H inh | PABP FP inh | others
Cc1ccc(-n2c(SCC(N)=O)nc(O)cc2=O)cc1 | 7 | 15 | i | -14 | -1 | 5 | 27 | 2
Cc1nc(Nc2nc3c(c(=O)[nH]2)CCC3)nc2ccccc12 | 2 | 32 | i | -17 | -25 | . | . | .
CC1CCCCN1Cc1nc2c(c(=O)n(C)c(=O)n2C)n1CCc1ccccc1 (stereo not drawn) | . | -16 | i | 2 | -3 | . | 2 | 8
Nc1ccc(S(=O)(=O)Nc2ccc(Cl)nn2)cc1 | -15 | -9 | i | -1 | 3 | -5 | 16 | -3
CC(=O)Nc1ccc(OCC(O)CN2CCN(c3ccc(Cl)cc3)CC2)cc1 (stereo not drawn) | -29 | 60 | i | 3 | -1 | . | -4 | 3
O=C(COC(=O)[C@H](Cc1ccccc1)NC(=O)c1cccs1)NC1CCCCC1 | 6 | -9 | i | 1 | 5 | . | -6 | -6
COc1ccc2[nH]c(=O)c(CN(CCO)S(=O)(=O)c3ccc4c(c3)OCCO4)cc2c1 | . | -2 | i | 2 | 1 | . | -7 | 5
COc1ccc2c(=O)c(-c3ccccc3C)c(C)oc2c1 | 12 | 2 | i | -4 | -10 | . | -6 | 10
COc1ccccc1NC(=O)CSc1n[nH]c(Cc2ccccc2)n1 | -14 | 10 | i | -1 | -1 | -34 | 3 | 0
O=C(CSc1nnc2ccc(-c3cccnc3)nn12)Nc1ccccc1F | -15 | -18 | i | -2 | 2 | 0 | . | .

Reprinted from the part before: 4 compounds, then new ones.
SMILES | Yeast UUG start | CSC inhib | Rce1 inhib | MT1-MMP act inh | MT1-MMP act inh RFP | Env fusion inh | eIF4H inh | PABP FP inh | others
COc1ccc2[nH]c(=O)c(CN(CCO)S(=O)(=O)c3ccc4c(c3)OCCO4)cc2c1 | . | -2 | i | 2 | 1 | . | -7 | 5
COc1ccc2c(=O)c(-c3ccccc3C)c(C)oc2c1 | 12 | 2 | i | -4 | -10 | . | -6 | 10
COc1ccccc1NC(=O)CSc1n[nH]c(Cc2ccccc2)n1 | -14 | 10 | i | -1 | -1 | -34 | 3 | 0
O=C(CSc1nnc2ccc(-c3cccnc3)nn12)Nc1ccccc1F | -15 | -18 | i | -2 | 2 | 0 | . | .
COc1ccc([N+](=O)[O-])cc1NC(=O)COC(=O)C=C(C)C | . | -5 | i | 0 | 0 | 2 | 5 | -8
CC1(C)Cc2c(sc(NC(=O)c3ccc(Br)o3)c2C#N)CO1 | -8 | -3 | i | 2 | 1 | -155 | 0 | 3
Cc1nn(-c2ccccc2)c(C)c1NC(=O)COc1ccc(Br)cc1Cl | -13 | 6 | i | -1 | -26 | 46 | -4 | 5
Cc1cccc(C)c1NC(=S)N(CCc1ccncc1)C(C)C | . | 2 | i | -2 | 1 | 10 | -10 | 2
O=C(N/C(=C\c1ccco1)C(=O)N1CCOCC1)c1ccco1 | -10 | -17 | i | -3 | 3 | 0 | 80 | 41 | eIF4H inh retest=0;PABP FP inh retest=5
Cc1cc(C)c2cc(CN(CC3CCCO3)S(=O)(=O)c3ccc4c(c3)OCCO4)c(=O)[nH]c2c1 (stereo not drawn) | -14 | 5 | i | 1 | -6 | . | 0 | 12
COc1ccccc1CNCc1cccs1 | 4 | -15 | i | -6 | 3 | . | -3 | 3
CCOC(=O)C1CCCN(C(=O)CSc2nnc3nc(C)cc(C)n23)C1 (stereo not drawn) | -39 | 8 | . | 0 | 4 | . | . | .
Cc1ccc(N2C(=O)c3ccccc3C2Nc2ccc(S(=O)(=O)N3CCCCC3)cc2)nc1 (stereo not drawn) | -12 | 15 | i | -15 | -6 | 44 | -3 | -9
Cn1c(CCN2CCN(c3ccc(F)cc3)CC2)nc2cc(NC(=O)c3ccco3)ccc21 | -15 | -5 | i | 0 | -10 | 26 | -11 | -15
Cc1ccc(S(=O)(=O)N2C[C@H]3[C@H]4C(=O)N(C5CCCCC5)C(=O)[C@H]4CC(=O)[C@H]3[C@@H]2c2ccccc2F)cc1 | -7 | . | . | -4 | -4 | 65* | . | .
O=C1NC[C@H](Cc2ccccc2)N(CC2CCN(CCCC3CCCC3)CC2)C1=O | -6 | . | . | 2 | 3 | -13 | . | .
O=C(NCc1ccccc1Cl)c1cccc2c1C(=O)c1ccc(-c3ccc(OC(F)(F)F)cc3)cc1S2(=O)=O | -14 | 65 | . | -3 | 1 | . | . | .
CCc1nnc(NC(=O)CCN(c2ccc(C)cc2)S(=O)(=O)c2ccccc2)s1 | . | -16 | i | 0 | -2 | -12 | 2 | 2
CCN(CC)CCC(=O)c1ccc(F)cc1 | . | -12 | i | 6 | 6 | 2 | 2 | -3
Cc1c(Br)cc(C(=O)NCc2ccco2)c(C)c1C | -8 | 12 | i | -7 | -3 | . | 24 | 12
COc1ccc(OC)c(S(=O)(=O)N2CCC(C(=O)NCc3ccncc3)CC2)c1 | -14 | -11 | i | 0 | 0 | -2 | 3 | -1
CC(C)OC(=O)CSc1nnc(-c2ccc(C(C)(C)C)cc2)n1N | -16 | -8 | i | 3 | 0 | -34 | 4 | 5
Cc1ccc(-c2c(C)sc3ncn(CC(=O)N4CCOCC4)c(=O)c23)cc1C | . | -6 | i | 5 | -3 | -31 | -5 | 5
CC1CC(=O)N(CC(=O)Nc2ccc(F)cc2)c2ccccc2S1(=O)=O (stereo not drawn) | 4 | -10 | i | 3 | 6 | 4 | -8 | 7

2 consecutive compounds already listed, quoted:
SMILES | Yeast UUG start | CSC inhib | Rce1 inhib | MT1-MMP act inh | MT1-MMP act inh RFP | Env fusion inh | eIF4H inh | PABP FP inh | others
COc1ccc(OC)c(S(=O)(=O)N2CCC(C(=O)NCc3ccncc3)CC2)c1 | -14 | -11 | i | 0 | 0 | -2 | 3 | -1
CC(C)OC(=O)CSc1nnc(-c2ccc(C(C)(C)C)cc2)n1N | -16 | -8 | i | 3 | 0 | -34 | 4 | 5

Carrying on.
SMILES | Yeast UUG start | CSC inhib | Rce1 inhib | MT1-MMP act inh | MT1-MMP act inh RFP | Env fusion inh | eIF4H inh | PABP FP inh | others
Cc1nc(SCC(=O)O)n[nH]1 | . | -4 | i | 3 | 3 | 27 | -10 | 0
Cc1cc(Nc2cccc(C(F)(F)F)c2)n2nc(C)nc2n1 | -19 | -17 | i | 3 | 3 | . | -10 | -3
CCc1ccc(Nc2oc(C)cc(=O)c2C(C)=O)cc1 | -17 | -15 | i | -6 | 6 | -12 | -8 | -2
O=C(NCCCN1CCOCC1)c1cc2c(s1)CCCC2 | . | -7 | i | 11 | 2 | . | 0 | 1
O=S(=O)(c1ccc(SCc2ccccc2)nc1)N1CCCCC1 | -29 | -10 | . | 8 | 2 | 2 | . | .
Cc1ccc(CNC(=O)CSc2nc(=O)n3ccc(C)cc3n2)cc1 | -13 | . | . | -1 | 1 | 19 | . | .
C=CCNC(=S)/C(=C(/[O-])c1ccc([N+](=O)[O-])cc1)[n+]1ccccc1 | . | 16 | i | 2 | 2 | -3 | 4 | -4
CCc1ccc(OCC(O)CN2CCC(CN3C(=O)c4cccc5cccc(c45)C3=O)CC2)cc1 (stereo not drawn) | . | 45 | i | -1 | -14 | . | 1 | 8
O=C(c1cc(-c2ccc(F)cc2)on1)N1CCOCC1 | -27 | -4 | i | 1 | 5 | -16 | 2 | -2
COc1ccc(NC(=O)C/C(C)=N/NC(=O)c2cnccn2)cc1 | . | 2 | i | -2 | -3 | -17 | -4 | -5

Entries above that contain a CF3 group:
SMILES | Yeast UUG start | CSC inhib | Rce1 inhib | MT1-MMP act inh | MT1-MMP act inh RFP | Env fusion inh | eIF4H inh | PABP FP inh | others
O=C(NCc1ccccc1Cl)c1cccc2c1C(=O)c1ccc(-c3ccc(OC(F)(F)F)cc3)cc1S2(=O)=O | -14 | 65 | . | -3 | 1 | . | . | .
Cc1cc(Nc2cccc(C(F)(F)F)c2)n2nc(C)nc2n1 | -19 | -17 | i | 3 | 3 | . | -10 | -3

Going on with the list.
SMILES | Yeast UUG start | CSC inhib | Rce1 inhib | MT1-MMP act inh | MT1-MMP act inh RFP | Env fusion inh | eIF4H inh | PABP FP inh | others
COc1ccc(NC(=O)CCc2ccc(OC)c(OC)c2)cn1 | -3 | 0 | i | -1 | -1 | -2 | 15 | 9
CCOC(=O)c1ccc(N2CCN(c3cc(C)ccc3C)CC2)c(N)c1 | . | 4 | i | 5 | 3 | 3 | -7 | -8
Cc1nc2c(cc1C(=O)N/N=C/c1ccc(O)c(O)c1)c(=O)n(C)c(=O)n2C | -18 | -14 | i | 2 | -1 | 3 | -2 | -13
Cc1cc(=O)c2ccc(NC(=O)c3ccccc3)cc2[nH]1 | -11 | . | . | 6 | 4 | 0 | . | .
CSc1ncccc1C(=O)Nc1ccc(F)c(F)c1F | -24 | -7 | i | 1 | -1 | 0 | 12 | -1
C[C@H](CO)N1C[C@H](C)[C@H](CN(C)Cc2cncnc2)Oc2cc(Br)ccc2S1(=O)=O | -7&5 | . | . | -1 | -1 | -25[16.7 µM] | . | .
Cc1oc(-c2ccc(C(F)(F)F)cc2)nc1CN(Cc1ccccn1)C[C@@H]1CCC(=O)N1 | . | -6 | i | 5 | 0 | 5 | 6 | 0
CCOc1ccc(-c2cc(C(=O)NCCCN3CCCC3)c3ccccc3n2)cc1 | -9 | 2 | i | 0 | 4 | -1 | . | .
c1ccc(N2CCN(c3ncnc4scc(-c5cccs5)c34)CC2)cc1 | -17 | 26 | . | -6 | -18 | 82* | -2 | -5
CC(=O)Nc1ccc(S(=O)(=O)N2CCN(C(=O)N3CCCCC3)CC2)cc1 | -8 | -14 | i | -1 | -4 | -9 | 2 | -4
CCC(=O)OCc1c(C(F)(F)F)nn(C)c1Sc1ccc(F)cc1 | -10 | -15 | i | 2 | -3 | -25 | -7 | -2
COc1ccc(C(=O)CC(=O)c2ccc(F)cc2)cc1 | -19 | 9 | i | 2 | -1 | -92 | . | .
CCc1nc2c(OCc3ccc(Cl)cc3)cccn2c1N(C=O)Cc1ccccc1 | -12 | . | . | -1 | 1 | 0 | . | .
COc1ccccc1NS(=O)(=O)c1cccc(NC(=O)c2cc3ccccc3oc2=O)c1 | . | -4 | i | -1 | 0 | -29 | -1 | 4
COc1ccc(-c2c(C#N)c(SCc3c(C)noc3C)nc3c2C(=O)CC(C)(C)C3)cc1 | -20 | -8 | i | 2 | -2 | 10 | -2 | -1
O=C(COc1ccc(F)cc1)Nc1nc2c(s1)CCCC2 | -7 | 11 | i | 1 | -1 | -22 | 6 | 16
Cc1ccc(NC(=O)C(C)OC(=O)/C=C/c2ccccc2)cc1 (stereo not drawn) | -18 | -1 | i | 0 | 1 | -1 | -12 | 1
Cc1nc(SCC(=O)NCc2cccs2)nc(C)c1C | . | -10 | i | 10 | 8 | -3 | -2 | 16
COC(=O)/C(=C\Nc1cccc(Cl)c1C)c1ncc(C(F)(F)F)cc1Cl | . | -3 | i | -2 | 0 | . | -1 | -3
Cc1ccc(-c2cc(C(=O)NNC(=O)c3csc(N4CCOCC4)n3)c3ccccc3n2)cc1 | -5 | 20 | . | 3 | 2 | -31 | . | .
